# Source: PubChem BioAssay (several laboratories)
# HNF4A DNA FP = change in binding of human HNF4 alpha to DNA; P41235; HNF4a-FITC DNA binding, fluorescence polarization, 1 h; activity change, % at 10 µM; 0.3% of 360,000 active; AID 1224865; in the data active = activity change above about 30%, passing the limit was not always enough;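 also: controls were the assay level and a saturating level of protein; the project sought stronger binding though the title names inhibitors; some compounds called inactive have numbers as strong as hits; positive values seem to mean higher polarization but the record does not say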
# E coli growth = blocks Escherichia coli growth. OD600, 23 h; active compounds read low. OD600 absorbance (concentration not given with the values). 0.21% of 330,000 active. AID 1053175;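 active = OD600 absorbance below the run mean of sample wells minus 3.6 SD, in any replicate, cut at about 0.56 in these data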;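 also: stock transfer was 300 nL into about 60 µL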
# FGF22 binding = binders of recombinant human FGF22 by thermal shift; Q9HCT0; SYPRO orange fluorescence; percent of sucrose octasulfate shift, DMSO zero; calls only at 9.99 µM; 1.5% of 340,000 active; AID 651658;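 active = melting point raised past a set limit in the mean and every replicate; three in four hits are not shown here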
# Target sequence (Q9HCT0 whole entry, looked up): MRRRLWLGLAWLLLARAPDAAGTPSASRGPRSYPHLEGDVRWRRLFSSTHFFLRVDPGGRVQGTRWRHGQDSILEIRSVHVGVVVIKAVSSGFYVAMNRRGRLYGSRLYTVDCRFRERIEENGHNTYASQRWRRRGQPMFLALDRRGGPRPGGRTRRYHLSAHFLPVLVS
# UCH37 inh = inhibitors of human deubiquitinating enzyme UCH37; 0.33% of 330,000 active; inhibition, % (concentration not given with the values); AID 588478; Q9Y5K5; purified proteasome/UCH37, Ub-AMC cleavage fluorescence;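 active = mean of two replicates above 20%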;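 also: 0% = compound-free wells with enzyme and 100% = wells lacking proteasome; stock transfer was 100 nL into about 20 µL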
#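 Material: Human UCH37 enzyme supplied as purified proteasome complex | Schedule: 30 min compound-proteasome preincubation then 25 min substrate reaction, room temperature | Detection: AMC fluorescence from Ub-AMC cleavage, excitation 355 nm, emission 460 nm | Benchmarks: Wells without proteasome as full block, compound-free enzyme plus substrate as uninhibited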
# ALR inh = inhibitors of human sulfhydryl oxidase ALR; AID 485317; purified ALR, DTT oxidation, H2O2 HRP-luminol luminescence; P55789; 3.8% of 290,000 active; inhibition, % (no concentration beside the values);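 active = mean and each replicate at 75% or more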;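 also: stock transfer was 7.5 nL into about 7.5 µL; 0% = neutral wells and 100% = wells with inactivated enzyme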
# Target sequence (P55789 whole entry, looked up): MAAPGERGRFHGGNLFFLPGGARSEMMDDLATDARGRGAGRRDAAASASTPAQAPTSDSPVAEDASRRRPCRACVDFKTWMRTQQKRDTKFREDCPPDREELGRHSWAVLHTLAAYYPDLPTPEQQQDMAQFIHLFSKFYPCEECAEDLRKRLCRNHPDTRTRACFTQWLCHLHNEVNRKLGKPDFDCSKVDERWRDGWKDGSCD
# Ecoli rRNA inh = selective bacterial rRNA inhibition in E. coli; E. coli WT GFP vs humanized-ribosome RFP mutants, fluorescence, 24 h; active compounds read low; DMSO median 0, no signal -100; GFP signal change (wild-type ribosome), % (test concentration not listed); 1.6% of 350,000 active;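 active = significant combined selectivity score with lowered wild-type GFP, culture density cut under 30%, mutant RFP and density less affected; inactive = any of these conditions unmet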; also: one replicate is shown; some compounds called inactive have numbers as strong as hits
# B2AR ag = human beta-2 adrenergic receptor agonism by FAP; Am2.2-beta2AR cells, FAP receptor internalization, flow cytometry; reference of the scale not given here; 0.43% of 340,000 active; P07550; response, % (concentration not given with the values);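 active = response above a set limit, near 3 SD of response in nonfluorescent compounds, cut at about 42% in these data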;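 also: stock transfer was 100 nL into about 11 µL; a reference agonist was the positive control; negative values mostly stem from fluorescent compounds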
# Target sequence (P07550 whole entry, looked up): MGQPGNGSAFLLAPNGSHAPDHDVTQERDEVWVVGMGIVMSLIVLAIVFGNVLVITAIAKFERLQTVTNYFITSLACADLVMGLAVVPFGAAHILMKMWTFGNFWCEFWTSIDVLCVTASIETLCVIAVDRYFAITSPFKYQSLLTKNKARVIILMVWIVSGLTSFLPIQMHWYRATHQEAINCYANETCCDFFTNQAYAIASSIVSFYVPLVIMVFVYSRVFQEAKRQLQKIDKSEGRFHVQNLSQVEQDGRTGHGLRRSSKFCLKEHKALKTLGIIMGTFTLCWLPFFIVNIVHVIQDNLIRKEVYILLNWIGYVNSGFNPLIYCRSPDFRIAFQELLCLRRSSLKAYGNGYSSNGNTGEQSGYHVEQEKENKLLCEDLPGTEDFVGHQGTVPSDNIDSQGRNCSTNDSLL
# Ecoli rRNA inh OD600 = recorded beside Ecoli rRNA inh, whose call it bears; OD600 change, %; measured here: OD600 growth;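 optical density of the mix in the first replicate; 0 = DMSO median and -100 = no signal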
# Ecoli rRNA inh RFP = further read-out of Ecoli rRNA inh, marked with its call; RFP signal change, %; measured here: RFP humanized mutant strains;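 first replicate; 0 = DMSO median and -100 = no signal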
# Numbers without * were called inactive; i = inactive; . = not tested or not shown. The list is partial; the hit share may differ from the screen's.
1. CC(C)(C)C(=O)Nc1ccc2c(c1)OCCOCCOc1cc(NC(=O)C(C)(C)C)ccc1OCCOCCO2
2. Cc1ccc(C)c(NC(=O)CSc2ccc(-c3cccs3)nn2)c1
3. CCCCOc1ccc(CSC(=N)N)cc1[N+](=O)[O-]
4. CC(=O)Oc1c(C)cc(Cl)cc1C(=O)Nc1ccc([N+](=O)[O-])cc1Cl
5. CC(Sc1ccc(S(=O)(=O)N2CCCC2)cn1)C(N)=O (configuration not stated)
6. COc1ccc(CCNC(=O)c2ccc(COc3ccccc3OC)o2)cc1
7. Cc1ccc(NC(=O)N2CCc3ccccc3C2)c(C)c1
8. O=C(Nc1cccc(C(F)(F)F)c1)C1(c2ccccc2)CC1
compound no.	1	2	3	4	5	6	7	8
HNF4A DNA FP	4.4	-1.2	-0.3	1.9	-0.3	-3.8	-0.5	-2.0
E coli growth	0.65	0.65	0.67	0.71	0.72	0.64	0.7	0.67
FGF22 binding	.	.	.	i	i	i	i	.
UCH37 inh	2.5	3.5	8.5	3.3	2.7	-0.6	2.8	3.8
ALR inh	-12	-2	100*	0	-6	-14	-12	-3
Ecoli rRNA inh	13	.	.	-30	14	-8	2	.
Ecoli rRNA inh OD600	10	.	.	-55	10	-1	4	.
Ecoli rRNA inh RFP	-4.5	.	.	-4.2	1.2	2.0	-3.3	.
B2AR ag	13	-16	-5	20	7	-6	7	-6

9. O=C(CCNS(=O)(=O)c1ccc2c(c1)CCC(=O)N2)Nc1ccc2c(c1)OCCO2
10. COC(=O)c1sc(NC(=O)c2ccc([N+](=O)[O-])o2)c(C#N)c1C
11. O=C(Nc1ccc2c(c1)OCCO2)c1ccc(Br)cc1
12. CC(C)c1ccc(-n2cnn(-c3ncccc3[N+](=O)[O-])c2=O)cc1
13. COc1ccc(Nc2nc(C)nc3c2nnn3Cc2ccccc2Cl)c(OC)c1
14. COc1ccc(NC(=O)c2cc(-c3ccco3)on2)cc1
15. CC(C)c1nnc(NC(=O)c2nc(S(=O)(=O)Cc3ccc(F)cc3)ncc2Cl)s1
16. CN(C)CCCn1c(SCC(=O)Nc2nc(-c3cccc(Br)c3)cs2)nc2ccccc2c1=O
compound no.	9	10	11	12	13	14	15	16
HNF4A DNA FP	1.1	2.9	1.6	-2.5	6.1	2.6	0.7	4.8
E coli growth	0.7	.	.	0.7	0.77	0.64	.	0.51
FGF22 binding	.	i	i	i	i	i	i	i
UCH37 inh	2.7	.	.	1.3	-161	2.1	.	8.6
ALR inh	-20	-32	-7	.	-15	.	15	99*
Ecoli rRNA inh	.	0	-12	6	17	4	4	-27
Ecoli rRNA inh OD600	.	1	-6	5	15	0	5	20
Ecoli rRNA inh RFP	.	3.7	-10	-2.1	1.4	0.8	-0.6	26
B2AR ag	2	16	1	0	-4	-7	10	30

# Arranged by the number under ALR inh (highest first): 7 from the list above
3. CCCCOc1ccc(CSC(=N)N)cc1[N+](=O)[O-]
16. CN(C)CCCn1c(SCC(=O)Nc2nc(-c3cccc(Br)c3)cs2)nc2ccccc2c1=O
15. CC(C)c1nnc(NC(=O)c2nc(S(=O)(=O)Cc3ccc(F)cc3)ncc2Cl)s1
8. O=C(Nc1cccc(C(F)(F)F)c1)C1(c2ccccc2)CC1
1. CC(C)(C)C(=O)Nc1ccc2c(c1)OCCOCCOc1cc(NC(=O)C(C)(C)C)ccc1OCCOCCO2
13. COc1ccc(Nc2nc(C)nc3c2nnn3Cc2ccccc2Cl)c(OC)c1
10. COC(=O)c1sc(NC(=O)c2ccc([N+](=O)[O-])o2)c(C#N)c1C
compound no.	3	16	15	8	1	13	10
HNF4A DNA FP	-0.3	4.8	0.7	-2.0	4.4	6.1	2.9
E coli growth	0.67	0.51	.	0.67	0.65	0.77	.
FGF22 binding	.	i	i	.	.	i	i
UCH37 inh	8.5	8.6	.	3.8	2.5	-161	.
ALR inh	100*	99*	15	-3	-12	-15	-32
Ecoli rRNA inh	.	-27	4	.	13	17	0
Ecoli rRNA inh OD600	.	20	5	.	10	15	1
Ecoli rRNA inh RFP	.	26	-0.6	.	-4.5	1.4	3.7
B2AR ag	-5	30	10	-6	13	-4	16

# Next part:
17. CCOc1ccc(N2CC(C(=O)Nc3nnc(Cc4ccc(OC)c(OC)c4)s3)CC2=O)cc1 (configuration not stated)
18. CCC(C)[C@H](NC(=O)[C@@H]1CSC2c3ccccc3C(=O)N21)C(=O)NCC1CCCO1 (some centres not stated)
19. COc1ccc(C(C)(O)c2nc(-c3cccc(F)c3)cs2)cc1 (configuration not stated)
20. O=C(NCc1ccc(F)cc1)c1cc(C2CCCN(C(=O)c3ccc4c(c3)CCO4)C2)on1 (configuration not stated)
21. COc1cccc(CNC(=O)c2nnn(CC(=O)Nc3cc(Cl)ccc3C)c2N)c1
22. O=C(/C=C/c1ccccc1)NNc1ccc(Cl)cc1
23. NC(=S)N=Nc1c(O)n(Cc2ccc(F)cc2)c2ccccc12
24. S=c1[nH]nc(-c2cccs2)n1C1CCCCC1
compound no.	17	18	19	20	21	22	23	24
HNF4A DNA FP	0.6	1.9	-1.7	1.3	-4.4	-0.9	-2.1	-1.9
E coli growth	0.66	0.69	.	.	.	0.68	0.7	0.63
FGF22 binding	i	i	i	i	i	i	.	i
UCH37 inh	3.0	6.6	.	.	.	5.0	1.9	-1.4
ALR inh	-6	0	.	.	-1	-6	-2	35
Ecoli rRNA inh	-2	4	-39	-2	16	8	.	-14
Ecoli rRNA inh OD600	3	-3	-66	-11	17	5	.	-12
Ecoli rRNA inh RFP	2.4	-0.7	3.4	0.4	-2.5	1.1	.	-2.2
B2AR ag	1	1	.	.	3	8	-3	12

25. O=C1CCC(CCc2nc3ccccc3[nH]2)(c2ccccc2)C(=O)N1 (configuration not stated)
26. CCOc1ccc(N(CC(=O)Nc2ccc(C)c(Cl)c2)S(C)(=O)=O)cc1
27. CCN(C(=O)COC(=O)C1=COCCO1)c1c(N)n(Cc2ccccc2)c(=O)[nH]c1=O
28. NS(=O)(=O)c1cc(C(=O)OCC(=O)NNC(=O)c2ccccc2)ccc1Cl
29. O=C(c1cc2ccccc2oc1=O)N1CCN(S(=O)(=O)c2ccccc2)CC1
30. Cn1ncc(C#N)c1NC(=O)c1cc(-c2ccccc2Cl)on1
31. CCc1nnc(NS(=O)(=O)c2ccc(N3C(=O)C4CC=C(Cl)CC4C3=O)cc2)s1 (configuration not stated)
32. COc1cccc(C(=O)NCc2ccc3c(c2)cc(C)n3C)c1
compound no.	25	26	27	28	29	30	31	32
HNF4A DNA FP	1.8	4.0	-2.0	-0.9	11	1.9	-5.3	-5.9
E coli growth	0.69	0.7	0.66	0.67	0.7	0.7	0.71	0.7
FGF22 binding	i	i	i	i	i	.	.	i
UCH37 inh	0.7	3.5	0.7	1.0	-3.7	2.7	5.4	0.3
ALR inh	.	-3	.	-4	2	24	2	-9
Ecoli rRNA inh	-6	-23	0	-2	0	.	.	4
Ecoli rRNA inh OD600	-5	-20	2	2	9	.	.	8
Ecoli rRNA inh RFP	-0.1	-1.1	-3.7	-4.0	1.1	.	.	67
B2AR ag	-8	1	4	2	11	-2	-5	-8

33. Cc1ccc(-c2[nH]c3cc(C(N)=O)ccc3c(=O)c2O)cc1
34. COc1ccc(C(=O)c2ccc3oc(-c4ccc(OC)cc4)c(-c4ccc(O)cc4)c3c2)cc1
35. O=C(Nc1cccc2c1C(=O)NC2=O)c1ccccc1[N+](=O)[O-]
36. COc1ccc(N(CC(O)Cn2nnc3ccccc32)S(=O)(=O)c2ccc(C)cc2)cc1 (configuration not stated)
37. O=C(O)c1ccc(NC(CSCc2ccccc2F)C(=O)O)c([N+](=O)[O-])c1 (configuration not stated)
38. OCC#CCSc1nnc(-c2ccncc2)o1
39. C=CC(=O)N1C/C(=C/c2ccc(Cl)cc2)C(=O)/C(=C\c2ccc(Cl)cc2)C1
40. O=C(Oc1ccc(Cl)c2cccnc12)c1ccco1
compound no.	33	34	35	36	37	38	39	40
HNF4A DNA FP	-1.6	6.6	-0.5	-3.2	3.0	4.4	-4.3	-4.0
E coli growth	.	.	0.73	0.64	0.65	0.66	.	0.57
FGF22 binding	i	i	i	i	i	.	i	.
UCH37 inh	.	.	1.8	1.1	9.1	0.3	.	-3.1
ALR inh	-4	-4	3	-4	-12	-3	.	-10
Ecoli rRNA inh	2	13	10	-10	1	.	-15	.
Ecoli rRNA inh OD600	13	16	2	-13	11	.	-37	.
Ecoli rRNA inh RFP	-3.7	0.5	-8.3	6.5	3.2	.	18	.
B2AR ag	10	24	1	-11	9	4	25	3

41. CCNC(=O)COC(=O)c1ccc(NS(=O)(=O)c2ccc3c(c2)OCCO3)cc1
42. COC(=O)c1c(NC(=O)CSc2nnc(Cn3nnc4ccccc43)n2C)sc(C)c1C
43. COc1ccc2c3n(nc2c1)CCN=C3c1cc(Cl)c(N)c(Cl)c1
44. Cc1oc(-c2ccc(Cl)cc2)nc1CSCC(=O)NCCCN1CCOCC1
45. CCOC(=O)Cc1csc(NC(=O)COc2ccc(OC)cc2)n1
46. Nc1ccn([C@@H]2O[C@H](C(=O)N[C@H](COC=O)Cc3ccccc3)[C@@H](O)[C@H]2O)c(=O)n1
47. O=S(=O)(NCc1cccnc1)c1cccs1
48. COc1ccc(C(=O)CSc2nnc(Cc3ccccc3)o2)cc1
compound no.	41	42	43	44	45	46	47	48
HNF4A DNA FP	-1.2	0.8	5.4	5.9	0.8	0.6	0.4	-2.2
E coli growth	0.65	0.71	0.69	0.71	0.69	.	0.7	0.66
FGF22 binding	i	i	i	.	i	i	.	.
UCH37 inh	4.7	5.5	1.7	0.8	5.6	.	0.2	0.4
ALR inh	1	4	-46	99*	-10	.	-4	-3
Ecoli rRNA inh	10	4	-32	.	-10	1	.	.
Ecoli rRNA inh OD600	6	-2	-36	.	-10	6	.	.
Ecoli rRNA inh RFP	7.9	-3.5	-19	.	-4.7	0.0	.	.
B2AR ag	-2	-9	-14	6	7	.	8	20

49. CCOC(=O)c1c(C)[nH]c(N=Nc2ccccc2C)c1C
50. Cc1ccsc1/C=C1\CCc2ccccc2C1=O
51. Nc1n[nH]c(-c2cccc([N+](=O)[O-])c2)n1
52. c1ccc(-c2cnc(CSc3ncnc4sccc34)o2)cc1
53. FC(F)(F)c1ccccc1NC(=S)N1CCc2ccccc2C1
54. c1ccc(CSc2cc3ccccc3[nH]2)cc1
55. COc1cccc(NC(=O)C(C)Oc2ccccc2)c1 (configuration not stated)
56. O=S(=O)(Cc1ccc(Cl)cc1)N1CCN(Cc2ccc3c(c2)OCO3)CC1
57. CC[C@@]1(C(=O)OC)N[C@H](CN(C)C(=O)Nc2ccc(C(F)(F)F)cc2)[C@@H]2C(=O)N(Cc3ccccc3)C(=O)[C@@H]21
58. N#Cc1nc(COc2ccccc2)oc1N1CCCCCC1
compound no.	49	50	51	52	53	54	55	56	57	58
HNF4A DNA FP	-1.0	-2.4	-2.1	4.8	0.5	3.6	-1.4	-0.6	-1.6	-0.9
E coli growth	0.67	0.71	0.72	0.69	0.72	0.68	0.67	0.68	.	0.73
FGF22 binding	.	.	.	.	i	i	.	i	i	i
UCH37 inh	2.9	2.1	1.2	3.2	4.0	3.2	4.6	1.5	.	7.3
ALR inh	0	-7	9	4	-16	55	0	-2	.	1
Ecoli rRNA inh	.	.	.	.	3	-4	.	-20*	-8	-6
Ecoli rRNA inh OD600	.	.	.	.	9	-1	.	-5.1*	13	-13
Ecoli rRNA inh RFP	.	.	.	.	-0.7	0.7	.	-0.2*	-0.6	-5.3
B2AR ag	15	6	-3	-14	-5	6	26	1	0	-7
